Screening results: PubChem BioAssay, ICCB-Longwood Screening Facility, Harvard Medical School
Polio RdRp inh: poliovirus RNA polymerase inhibition; P03300; AID 588519; 150,000 compounds, 0.66% hits; % elongation, % (compound at 16.7 µg/mL); poliovirus polymerase elongation, fluorescence polarization; active compounds read low; in the data active = % elongation below about 90%; also: some results filed as inactive read as strong as hits
Target sequence (P03300 1749-2209 limits assumed): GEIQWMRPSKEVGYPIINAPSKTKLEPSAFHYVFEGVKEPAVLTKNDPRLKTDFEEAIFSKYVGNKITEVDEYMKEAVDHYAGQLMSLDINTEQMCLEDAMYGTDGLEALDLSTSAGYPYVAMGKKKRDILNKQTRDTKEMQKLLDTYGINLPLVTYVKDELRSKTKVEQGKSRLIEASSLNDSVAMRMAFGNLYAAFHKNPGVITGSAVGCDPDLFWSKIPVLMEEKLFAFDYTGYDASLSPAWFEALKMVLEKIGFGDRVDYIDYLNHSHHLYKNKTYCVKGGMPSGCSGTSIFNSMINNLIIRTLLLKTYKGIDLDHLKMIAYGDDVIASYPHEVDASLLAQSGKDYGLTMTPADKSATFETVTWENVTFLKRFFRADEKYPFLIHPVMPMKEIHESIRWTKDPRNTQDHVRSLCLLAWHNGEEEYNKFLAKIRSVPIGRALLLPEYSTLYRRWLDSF
Polio RdRp inh intensity: further read-out of Polio RdRp inh, marked with its call; % elongation; measured here: total intensity read-out; formula for this scale not given here;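 total fluorescence in place of polarization; lower means less elongation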
* hit, by the source's call. A portion of the library. The share of hits here may be higher or lower than overall.

SMILES | Polio RdRp inh | Polio RdRp inh intensity
Cc1ccc(-c2nc3cc(Cl)ccc3o2)cc1NC(=O)COc1ccc(F)cc1 | 106 | 110
CCc1ccc(-c2cn3c(n2)sc2cc(C(=O)NC4CCCCC4)ccc23)cc1 | 112 | 108
CCc1ccc(NS(=O)(=O)c2ccc3oc(=O)c4ncn(CC)c4c3c2)cc1 | 104 | 103
CCCCOC(=O)Cn1nnc2sc(-c3ccccc3)cc2c1=O | 115 | 115
CCc1ccc(CN(Cc2ccco2)c2cnc(S(C)(=O)=O)nc2C(=O)Nc2c(C)cccc2C)cc1 | 106 | 105
CCc1ccc(CN2CCc3nc(N4CCN(c5ccccc5F)CC4)ncc3C2)cc1 | 109 | 116
Cc1ccc(C(=O)c2oc3ccccc3c2NC(=O)COc2ccccc2Cl)cc1 | 104 | 108
CCOC(=O)C1CCCN(S(=O)(=O)c2ccc3c(c2)CCN3C(=O)CC)C1 (configuration not stated) | 115 | 116
Cc1ccc2nc3c(cc(C(=O)NC4CCCCC4)c(=N)n3C(C)C)c(=O)n2c1 | 107 | 112
Cc1cc2c(cc1S(=O)(=O)CCC(=O)Nc1ccc(OC(F)(F)F)cc1)OCC(=O)N2 | 102 | 110
Cc1ccc(Cl)cc1N1CCN(C(=O)CCS(=O)(=O)c2cc(Br)cc3c2N(C(=O)C2CC2)CC3)CC1 | 107 | 110
CCc1cc2c(cc(C(=O)OC)n2Cc2nc(-c3ccc(C)cc3)oc2C)s1 | 99 | 103
COc1ccc(CNC(=O)c2cc3cc(C)ccc3n2C)cc1 | 109 | 111
Cc1nnc2c3ccccc3nc(N3CCN(c4cccc(Cl)c4)CC3)n12 | 98 | 98
O=C(NC1CC(=O)N(c2cccc(F)c2)C1)c1ccc(Br)o1 (configuration not stated) | 108 | 112
COc1cc(C(CC(=O)Nc2ccc(F)cc2F)N2Cc3ccccc3C2=O)cc(OC)c1OC (configuration not stated) | 103 | 102
CCc1cccc(NC(=O)CN(C)S(=O)(=O)c2ccc3[nH]c4c(c3c2)CCCC4)c1 | 100 | 107
COc1ccc(CCNC(=O)c2ccc3c(c2)N(Cc2ccccc2C)C(=O)c2ccccc2S3)cc1OC | 107 | 91
COc1cc2c(cc1OC)C(COc1ccc3c(C)cc(=O)oc3c1)N(C(=O)Cc1ccccc1)CC2 (configuration not stated) | 105 | 107
Cc1ccc(Cn2cc(S(=O)(=O)c3cccc(C)c3)c(=O)c3cc(F)c(N4CCOCC4)cc32)cc1 | 109 | 108
c1ccc(CNc2nc3ccccc3c3nc(-c4ccccc4)nn23)cc1 | 109 | 112
CC(=O)Nc1ccc2nc(SCc3ccccc3)sc2c1 | 103 | 104
O=C(Nc1ccc2oc(-c3cccc4c(Br)cccc34)nc2c1)c1cccc(Cl)c1 | 107 | 112
COc1ccc(C(=O)c2cn(Cc3ccc(F)cc3)c3ccc(C)cc3c2=O)cc1 | 110 | 111
CC(=O)c1ccc(NC(=O)COc2ccccc2-c2nc(-c3ccccc3)no2)cc1 | 114 | 115
CCN(CC)C(=O)c1ccc2c(c1)N(Cc1c(F)cccc1Cl)C(=O)c1ccccc1S2 | 114 | 107
O=C(Nc1noc2ccccc12)c1cccc(Cl)c1Cl | 122 | 124
COc1ccc(NC(=O)Cn2c(=O)oc3cc(Cl)ccc32)c(OC)c1 | 100 | 100
Cc1ccc(-c2nsc(NC(=O)c3oc4cc(C)c(Cl)cc4c3C)n2)cc1 | 110 | 110
CCCSc1oc(-c2ccco2)nc1S(=O)(=O)c1ccc(Br)cc1 | 99 | 100
Cc1cccc2sc(N(CCCN(C)C)C(=O)c3ccc(Cl)s3)nc12 | 107 | 105
Cc1ccc(CCNC(=O)CCSCc2ccc(Cl)cc2)cc1 | 112 | 116
Cc1ccc(CNS(=O)(=O)c2c(C)nc3sc(C)cn3c2=O)cc1 | 103 | 98
CCOc1ccc(C2C(=O)N(C3CCCCCC3)CC(=O)N2CCC2=CCCCC2)cc1OC (configuration not stated) | 101 | 106
CCC(=O)N1CCc2cc(Br)cc(S(=O)(=O)N3CCCC(C(=O)NCc4ccc(F)cc4)C3)c21 (configuration not stated) | 99 | 102
CC1CCCN(c2cc3c(cc2F)c(=O)c(S(=O)(=O)c2cccc(Cl)c2)cn3Cc2ccccc2)C1 (configuration not stated) | 107 | 106
COc1ccc(-n2nc3ccc(NC(=O)c4ccc(-c5cc(Cl)ccc5Cl)o4)cc3n2)cc1 | 103 | 107
Cc1ccc(Nc2nc(-c3ccccc3)nc3ccccc23)cc1 | 105 | 113
CCN1CCC(N(Cc2ccc3c(c2)OCO3)C(=O)Nc2ccc(Br)c(C)c2)CC1 | 112 | 112
COc1ccc(-n2cc(-c3ccccc3)c3c(N4CCCC(C)C4)ncnc32)cc1 (configuration not stated) | 112 | 112
CCOC(=O)c1ccccc1NC(=O)CSc1cn(CC(=O)N2CCCCC2)c2ccccc12 | 121 | 122
COc1ccc(NC(=O)Cn2cnc3c(oc4ccccc43)c2=O)cc1OC | 107 | 103
CC1=C(c2ccc(Cl)cc2)S(=O)(=O)N=C1N1CCC(C(=O)NCCc2ccco2)CC1 | 105 | 105
COc1ccccc1NC(=O)N(Cc1ccco1)C1CCN(C(C)=O)CC1 | 103 | 94
Cc1ccccc1CCNC(=O)C1CCN(S(=O)(=O)c2ccc3c(ccn3C)c2)CC1 | 110 | 116
CCOc1ccc(CN(CCc2ccc3c(c2)OCO3)Cc2ccc(C)cc2)cc1 | 100 | 101
Cc1ccccc1NC(=O)CSc1nc2c(oc3ccccc32)c(=O)n1-c1ccccc1F | 101 | 104
COc1ccc(S(=O)(=O)Nc2cc3c(cc2N2CCOCC2)n(C)c(=O)n3C)cc1 | 107 | 108
CCc1ccc(S(=O)(=O)c2nnn3c2nc(N2CCCC2)c2sccc23)cc1 | 111 | 98
CN(c1ccc(F)cc1)S(=O)(=O)N1CCCC(C(=O)NCc2cccc(Br)c2)C1 (configuration not stated) | 111 | 113
COc1ccc(CNC(=O)CN2C(=O)CC(c3ccc(C)c(C)c3)=Nc3ccccc32)cc1 | 105 | 103
CCN(CC)CCCNc1ncnc2c1cnn2-c1ccc(C)c(C)c1 | 102 | 106
Clc1cccc(N2CCN(c3nc4ccccc4n4cnnc34)CC2)c1 | 107 | 111
Cc1cccc2c(=O)cc(CSCC(=O)Nc3ccc(Cl)cc3)[nH]c12 | 110 | 106
O=C(Cc1ccccc1)Nc1sc2c(c1C(=O)Nc1ccccc1Cl)CCCC2 | 85* | 88*
NC(=O)c1c(NC(=O)c2noc3c2CCCC3)sc2c1CCCC2 | 69* | 73*
O=C(c1cccn1-c1nnc(N2CCCC2)s1)N1CCN(c2ccccc2)CC1 | 108 | 115
CCOc1ccc(-c2noc(CSc3nnc(Cc4ccccc4)n3-c3cccc(C)c3)n2)cc1 | 109 | 113
O=C(NCc1ccc2c(c1)CCN2C(=O)c1ccc(F)cc1)c1c(F)cccc1F | 109 | 104
COc1ccc(N2CCN(C(=O)c3cccn4c(=O)c5ccc(Cl)cc5nc34)CC2)cc1 | 114 | 105

Next part, starting with the last 4 of the part before.
SMILES | Polio RdRp inh | Polio RdRp inh intensity
O=C(c1cccn1-c1nnc(N2CCCC2)s1)N1CCN(c2ccccc2)CC1 | 108 | 115
CCOc1ccc(-c2noc(CSc3nnc(Cc4ccccc4)n3-c3cccc(C)c3)n2)cc1 | 109 | 113
O=C(NCc1ccc2c(c1)CCN2C(=O)c1ccc(F)cc1)c1c(F)cccc1F | 109 | 104
COc1ccc(N2CCN(C(=O)c3cccn4c(=O)c5ccc(Cl)cc5nc34)CC2)cc1 | 114 | 105
Cc1cccc(C(c2sc3nc(-c4ccco4)nn3c2O)N2CCOCC2)c1 (configuration not stated) | 107 | 104
COc1cccc(CNC(=O)C2CCCN(S(=O)(=O)N(C)c3ccc(F)cc3)C2)c1OC (configuration not stated) | 107 | 109
CCOC(=O)C1CCCN(S(=O)(=O)c2ccc3c(c2)N(C)C(=O)CC(=O)N3C)C1 (configuration not stated) | 125 | 121
CC(=O)Nc1ccc(NS(=O)(=O)c2ccc(Cl)s2)cc1 | 105 | 105
COc1ccc(OC)c(NC(=O)C2=C(C)C(=O)OC23CCN(C(C)C)CC3)c1 | 108 | 110
CCOCCCN1C(=O)CN(C2CCCCCC2)C(=O)C1c1ccc(OCC)c(OC)c1 (configuration not stated) | 105 | 102
Cc1nc(SCc2ccc(Cl)cc2)c(C#N)c(C)c1Cl | 101 | 106
COCCNC(=O)CSc1nc(-c2ccc(F)cc2)[nH]c1-c1ccc(Cl)cc1 | 113 | 108
O=S(=O)(c1ccc(-n2cnnn2)cc1)N1CCN(c2cccc(Cl)c2)CC1 | 106 | 108
COc1ccc(C(=O)Nc2ccc3nc4c(c(Nc5ccc(OC)c(OC)c5)c3c2)CCCC4)c(OC)c1 | 101 | 96
COc1ccc(Cn2c(CO)cnc2SCc2ccccc2)cc1 | 103 | 107
OCCN(CCO)c1ncnc2c1cnn2-c1ccc(F)cc1 | 102 | 97
Cc1cccc(NC(=O)c2sc3nc4c(cc3c2N)CCCCCC4)c1C | 111 | 109
COc1ccc(C)cc1NC(=O)CC(=O)Nc1ccc2nc3n(c(=O)c2c1)CCCCC3 | 109 | 104
O=S(=O)(c1ccc(Br)s1)N1CCN(c2cccc(C(F)(F)F)c2)CC1 | 107 | 104
CSc1ccc(CCNC(=O)c2cc3cc(S(=O)(=O)N4CCCCC4)ccc3n2C)cc1 | 106 | 114
COCCOC(=O)C1=C(C)N=C2SCCC(=O)N2C1c1ccc(OCc2ccccc2)c(OC)c1 (configuration not stated) | 105 | 108
COc1ccc(NC(=O)CN2C(=O)COc3ccc(S(=O)(=O)Nc4ccccc4)cc32)cc1 | 103 | 107
Cc1cc(=O)n(CC(=O)Nc2cccc([N+](=O)[O-])c2)c(-n2nc(C)cc2C)n1 | 109 | 115
Cc1cccc(NC(=O)c2cccc(N3CCCS3(=O)=O)c2)c1 | 110 | 114
O=C(Cn1ncc2c([nH]c3ccccc32)c1=O)Nc1cc(F)ccc1F | 112 | 116
Cc1cccc(Cn2c(SCc3ccc(C(=O)NCCc4ccccc4)cc3)nc3cccnc32)c1 | 100 | 103
CCOC(=O)N1CCc2c(sc3c2c(=O)n(-c2ccc(CC)cc2)c(=O)n3CC(=O)c2ccc(F)cc2)C1 | 104 | 108
CCOc1ccccc1NC(=O)C1CCN(S(=O)(=O)Cc2ccccc2)CC1 | 110 | 116
COc1ccc(CCNC(=O)c2ccc3c(c2)N(Cc2ccccc2Cl)C(=O)c2ccccc2S3)cc1OC | 106 | 112
Cc1cccc(-c2nc3c4ccccc4nc(N4CCN(c5cc(C)ccc5C)CC4)n3n2)c1 | 103 | 100
CCCc1ccc(S(=O)(=O)N2CCC(c3nnnn3-c3ccc(OC)cc3)CC2)cc1 | 103 | 103
CCOc1ccc(NC(=O)c2c(NCc3sccc3C)sc3c2CCCCC3)cc1 | 116 | 124
CCOC(=O)C1CCCN(S(=O)(=O)c2cc3c4c(c2)CC(=O)N4CCC3)C1 (configuration not stated) | 107 | 106
CCc1ccc(NC(=O)Cn2c(=O)c3cc(Cl)ccc3n3nncc23)cc1 | 109 | 109
CCOC(=O)c1c(NC(=O)c2ccc(S(=O)(=O)N3CCC(C)CC3)cc2)sc2c1CCN(C(C)C)C2 | 112 | 115
COc1cc(C2C(C(=O)OC(C)C)=C(C)N=C3SCCC(=O)N32)ccc1OCc1ccccc1 (configuration not stated) | 104 | 103
COc1ccc(-c2n[nH]c3c2cnc2ccc(F)cc23)cc1 | 116 | 100
Fc1ccc(Cn2c(-c3cccc(Br)c3)nc3ccccc32)cc1 | 107 | 103
CC1CCN(C(=O)C2COc3ccccc3C2)CC1 (configuration not stated) | 104 | 108
COc1ccc(Cn2c(CO)cnc2SCC(=O)NCc2ccco2)cc1 | 107 | 113
Cc1nc2sc(C(=O)Nc3ccc(F)cc3)c(N)c2c(-c2ccc(Br)cc2)c1C(=O)Nc1ccc(Cl)cc1 | 106 | 107
CCOc1ccc(NC(=O)c2cc3c(s2)-c2ccccc2OC3)cc1 | 106 | 108
COc1ccc(OC)c(CCNC(=O)C2=C(C)C(=O)OC23CCC(C)CC3)c1 (configuration not stated) | 110 | 110
CN(C(=O)CSc1nc2c(c(=O)[nH]1)CCCC2)c1ccccc1 | 112 | 109
CCCCNC(=O)Cn1ncc2c(C)n(Cc3cccc(Cl)c3)c(C)c2c1=O | 112 | 112
COc1ccc(-c2nc3ccccc3o2)cc1NC(=O)COc1c(C)cc(Cl)cc1Cl | 104 | 106
O=C(CSc1nccn1Cc1ccco1)Nc1ccc(OC(F)(F)F)cc1 | 107 | 109
COc1ccc(NC(=O)CNC(=O)Cn2c(C)cc3ccccc3c2=O)cc1OC | 109 | 112
CCOc1ccccc1CNC(=O)CSc1nnc(C)c2c(C)n(-c3ccccc3)nc12 | 98 | 102
COc1cc(OC)c(N(C)C(=O)c2sc3nc4n(c(=O)c3c2C)CCCC4)cc1Cl | 112 | 104
COc1ccc(C)cc1NS(=O)(=O)c1ccc(-c2cnc(C3CC3)o2)cc1 | 105 | 110
Cc1c2cnn(CC(=O)NCCc3ccccc3)c(=O)c2c(C)n1Cc1ccccc1Cl | 109 | 112
Cc1ccc(OCC(=O)Nc2cccc3ccc(C)nc23)c(C)c1 | 105 | 109
Cc1ccccc1C1=CCN(c2ncc(NC(=O)c3ccc(Cl)cc3)cc2C(=O)O)CC1 | 103 | 114
CCc1ccccc1Nc1nc2cc(Cl)c(Cl)cc2nc1-n1nc(C)cc1C | 107 | 112
COc1cc(C2CC(=O)Nc3c2c(=O)nc2c(C)cccn32)cc(OC)c1OC (configuration not stated) | 101 | 105
CCCCOC(=O)c1ccc(NC(=O)C2(c3cccs3)CCOCC2)cc1 | 107 | 112
CCOc1ccccc1NC(=O)c1c(NC(=O)c2cccc(C)c2)sc2c1CCC2 | 106 | 110
CCOc1ccc(C(=O)Nc2c(C(=O)Nc3ccccc3F)oc3ccccc23)cc1OCC | 100 | 101
O=C(O)CSc1nc2ccc(NC(=O)COc3ccc(Cl)cc3)cc2s1 | 109 | 107
Cc1cc(C)cc(Nc2ncnc3onc(-c4ccc(F)cc4)c23)c1 | 107 | 109
Cc1ccc(NC(=O)/C(C#N)=C/c2ccc(-c3ccc(Cl)c(C(=O)O)c3)o2)cc1C | 106 | 108
